# Assay outcomes: PubChem, several laboratories
# eIF4H FP inh – human eIF4H binding inhibitors, primary screen, translation initiation inhibitor project, biochemical, uHTS, fluorescence polarization; inhibition, % at 35 µM; Eukaryotic translation initiation factor 4H (Homo sapiens), Q15056; actives 0.94% (n = 290,000); eIF4H fluorescence polarization binding assay;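 active = 50% or more with normal probe brightness, or confirmed in later tests; inconclusive = above 50% with abnormal brightness, or retests that disagree; inactive = below 50% or failed in later tests; about a fifth of its hits are not listed in these tables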;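 note: calls also rest on retests at 20 µM and on dose response follow-up; 0% = protein and probe with vehicle and 100% = probe without protein; strong numbers were not always called active; many hits fall short of the cut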
# UUG fidelity – modulators of yeast start codon fidelity, primary screen, whole organism, S. cerevisiae, single point, plate reader. activity score, % at 18.7 µM. S. cerevisiae UUG-firefly luciferase reporter, luminescence/redox ratio. actives 0.13% (n = 350,000);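 active = replicate mean at a twofold rise or more, about +100% in these data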;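 note: firefly luciferase made from a UUG start codon reports start codon fidelity; reporter light over untreated wells divided by growth signal over untreated wells; some hits fall short of that in this replicate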
# MT1-MMP act inh – blockers of MT1-MMP proenzyme processing, primary screen, HT1080 RFP-PRO-GFP cells, GFP/RFP fluorescence | GFP/RFP ratio fluorescence, overnight; percent of plate control window, DMSO zero | GFP/RFP ratio change, % at 20 µM | actives 0.061% (n = 360,000) | AID 651647, 2012;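 active = GFP/RFP ratio change of at least 30% with cell ATP level not reduced by more than half and red fluorescence within 50% of control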; note: strong numbers were not always called active
#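 Test system: HT1080 cells expressing an RFP-PRO-GFP fluorescent reporter construct / Compound dosing: single-point 20 µM compound, 1% DMSO / Schedule: cells overnight before dosing, compound overnight, 37 °C, 5% CO2 / Evaluation: GFP/RFP fluorescence ratio / Control set: DMSO and RFP-L50D-GFP cell wells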
# PABP polyA inh – PABP poly(A) RNA binding inhibitors, primary screen, biochemical, fluorescence polarization, uHTS; inhibition, % at 35 µM; Polyadenylate-binding protein 1 (Homo sapiens), P11940; actives 1% (n = 290,000); AID 2014, 2009;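 active = 50% or more with normal probe brightness, or confirmed in later tests; inconclusive = above 50% with abnormal brightness, or retests that disagree; inactive = below 50% or failed in later tests; about a fifth of its hits are not listed in these tables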;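 note: calls also rest on retests at 20 µM and on dose response follow-up; controls were probe without protein and protein plus probe with vehicle; some compounds called inactive have numbers as strong as hits; many hits fall short of the cut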
# Rce1 inh – yeast Rce1p protease inhibitors, primary screen, biochemical, fluorescence, cell-free homogeneous; calls only; actives 0.27% (n = 290,000); yeast membranes, quenched prenylated peptide cleavage fluorescence;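 active = fall in fluorescence gain of 50% or more versus controls, with final raw signal at or below 3038400; inconclusive = same 50% fall but final raw signal above 3038400; inactive = fall in fluorescence gain under 50%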;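 note: plate controls were neutral control wells for no effect and wells lacking membranes for full effect; tested at 10 µM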
# Target sequence (Q03530 whole entry, looked up): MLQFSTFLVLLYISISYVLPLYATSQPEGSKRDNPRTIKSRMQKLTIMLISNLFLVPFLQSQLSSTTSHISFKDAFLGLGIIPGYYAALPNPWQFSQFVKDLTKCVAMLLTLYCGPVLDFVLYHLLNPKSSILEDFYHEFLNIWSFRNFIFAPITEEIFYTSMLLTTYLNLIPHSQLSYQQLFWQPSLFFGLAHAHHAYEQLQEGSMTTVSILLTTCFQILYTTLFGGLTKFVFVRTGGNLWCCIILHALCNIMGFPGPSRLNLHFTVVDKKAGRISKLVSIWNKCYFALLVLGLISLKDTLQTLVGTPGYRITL
# HIV Env fusion – inhibitors of HIV-1 Env-driven cell-cell fusion, primary screen, HeLa-JRFL effector, CEM21 target cells, luciferase | inhibition, % at 12.3 µM | actives 1.1% (n = 360,000);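 active = mean replicate inhibition score of at least 50 and every replicate individually at or above 50; inconclusive = only one of the two criteria met; inactive = mean below 50 and not all replicates reaching 50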;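 note: 0% = plate neutral controls and 100% = maraviroc near 300 nM; one replicate is shown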
# CSC inhib – cancer stem cell viability inhibitors, primary screen, luminescence. cancer stem cell-like cells viability. inhibition, % at 7.5 µM. actives 1.1% (n = 300,000);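 active = mean at 75% or more and at least half the replicates too; inconclusive = mean and replicates disagree; tested in HMLE shEcad cells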;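 note: 0% = median of negative and 100% = median of positive control wells; the first replicate is given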
# MT1-MMP act inh RFP – recorded beside MT1-MMP act inh, whose call it bears; RFP signal change, %; measured here: RFP expression control read;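 0 = vehicle wells; hits needed this value within 50% of zero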
# * = called active by the depositor; i = inactive; ? = inconclusive; nt = no result given.
SMILES,eIF4H FP inh,UUG fidelity,MT1-MMP act inh,MT1-MMP act inh RFP,PABP polyA inh,Rce1 inh,HIV Env fusion,CSC inhib
COc1cccc(NC(=O)C2CCCN(c3ncnc4c3nc3n4CCCCC3)C2)c1 (stereo not given),2.9,-3.6,-1.8,-2.9,11.7,i,-2.1,28.9
O=C(Nc1nccs1)c1cccnc1,-8.8,-15.2,-5.3,-1.3,1.7,i,1.6,8.5
O=S(=O)(Nc1ccc(N2CCCCC2)cc1)c1cccs1,-4.9,-19.9,7.9,0.0,-3.7,i,32.7,-0.2
NS(=O)(=O)c1ccc(CCNC(=O)COC(=O)C2CCC2)cc1,2.6,-6.1,3.7,4.5,13.0,i,-9.4,nt
COc1ccc(C(C)(C)C)cc1NC(=O)C1CC=CCC1C(=O)O (stereo not given),2.7,-4.2,3.8,1.7,2.7,i,nt,-4.0
Cc1ccc(-c2cc(=O)c3cc(C)ccc3[nH]2)cc1,0.5,-9.8,5.3,-18.8,-6.3,i,-224.5,59.1
O=C(NCCSCc1ccccc1)c1cc(S(=O)(=O)N2CCOCC2)ccc1F,-9.0,-25.7,-1.9,-2.1,-8.3,i,17.5,nt
CN1c2ccc([N+](=O)[O-])cc2N(C)C1(C)c1ccccc1 (stereo not given),8.7,-9.1,15.1,-16.6,0.6,i,42.6,7.7
O=C(Nc1ccc2c(c1)CN(C(=O)Nc1ccc(F)cc1)CC2)c1ccccn1,nt,-1.4,-2.6,-19.0,nt,nt,-129.9,nt
O=C(NC1CCCCC1)c1cc(C(=O)c2ccccc2Br)c[nH]1,-4.8,-17.9,-1.7,-2.5,-21.9,i,11.6,-5.7
COc1ccc(C2/C(=C(\O)c3ccc(OC)c(Cl)c3)C(=O)C(=O)N2CCN(C)C)cc1 (stereo not given),-0.1,-2.3,4.7,4.8,4.6,i,-8.6,-13.2
Cn1cc(C(=O)C(=O)N2CCCc3ccccc32)c2ccccc21,-5.6,-4.8,2.7,-1.4,-3.7,i,-31.7,35.3
CC(C)OCCCN(C)C1CCN(S(=O)(=O)c2ccc(-c3ccc(=O)[nH]n3)s2)CC1,-1.1,-2.6,-0.1,4.1,1.6,i,-2.0,6.0
N#Cc1ccccc1OCCn1cncn1,-0.3,-8.8,-2.3,4.3,-3.4,i,13.0,-22.9
O=S(=O)(c1ccc(Cl)nc1)N1CCC(Cc2ccccc2)CC1,nt,-22.6,1.1,-8.3,nt,nt,4.3,-4.7
C[C@@H]1NC(=O)[C@H](CCC(N)=O)NC(=O)c2cc([N+](=O)[O-])cc(I)c2NCCC[C@@H](C(N)=O)NC1=O,-4.1,-9.0,-3.1,4.9,-2.5,nt,-6.6,7.5
OC(c1ccccn1)c1c[nH]c2ccccc12 (stereo not given),7.8,nt,-1.5,8.0,6.4,i,nt,3.4
CCCCN(C(=O)c1ccc(Cl)c([N+](=O)[O-])c1)c1c(N)n(CCC)c(=O)[nH]c1=O,-1.2,6.6,2.8,9.0,3.1,nt,-11.4,-2.6
COC(=O)c1ccc(C(=O)N2CCCC(Nc3ccc(C(C)C)cc3)C2)cc1 (stereo not given),-6.9,2.9,-2.4,-3.0,-0.8,i,1.8,4.2
C=CCn1c(SCC(C)=O)nc2scc(-c3ccc(C)o3)c2c1=O,-1.4,-16.7,-6.5,-1.7,2.1,i,-45.1,-5.2
O=C(c1ccc(S(=O)(=O)NCc2ccco2)cc1)N1CCN(Cc2ccccc2)CC1,-1.9,nt,9.1,-1.4,-4.5,i,-9.6,-19.8
COCCN1C(=O)c2ccc(C(=O)Nc3nccs3)cc2C1=O,-5.6,-7.8,-2.5,-0.9,18.9,i,-0.9,-7.0
CC(=O)N1CCN(Cc2nc(-c3cccc(Cl)c3)no2)CC1,-0.2,nt,-0.8,2.5,-6.2,i,-5.8,0.7
O=S(=O)(NCCOC12CC3CC(CC(C3)C1)C2)c1cccc2nsnc12,-9.7,-7.2,4.3,-10.2,-3.5,i,nt,60.1
Cc1cc(C)c(C)c(S(=O)(=O)N2CCN(C(=O)c3ccc4c(=O)n5c(nc4c3)CCC5)CC2)c1C,nt,-7.5,3.6,3.0,nt,i,7.7,6.0
# (next part)
SMILES,eIF4H FP inh,UUG fidelity,MT1-MMP act inh,MT1-MMP act inh RFP,PABP polyA inh,Rce1 inh,HIV Env fusion,CSC inhib
CCCCN(CCCC)CCNC(=O)CN1C(=O)CSc2ccc(S(=O)(=O)N3CCCCC3)cc21,nt,-4.9,-3.5,2.6,nt,i,-7.9,-4.8
CN1CCN(c2ccc(C(=O)c3ccc(F)cc3)cc2)CC1,-7.1,-42.2,1.0,1.7,0.9,i,nt,49.5
O=C(C1=C[C@@H]2[C@H]3C(=O)N(c4ccc(Cl)cc4)C(=O)[C@H]3[C@@H](C(=O)c3ccc(Cl)cc3)N2C=C1)c1ccccc1,18.2,nt,-13.2,7.4,-3.9,i,-20.8,-0.5
COC(=O)c1cccnc1NC(=S)NC(C)C,6.3,nt,-0.3,3.1,-5.5,i,-4.0,nt
O=[N+]([O-])c1ccc(C(O)CN2CCN(Cc3ccccc3)CC2)cc1 (stereo not given),8.4,-17.7,2.7,3.3,12.4,i,3.4,-1.0
CC(=O)c1c(C)[nH]c(C(=O)N2CCc3ccccc32)c1C,-4.5,2.1,0.4,4.5,-1.0,nt,nt,nt
C/C(Cn1nc([N+](=O)[O-])cc1C)=N\NC(=O)COc1ccc(Cl)cc1Cl,-3.6,nt,1.6,-0.4,1.9,i,-46.7,11.6
CCOC(=O)Cn1c(=O)oc2cc(S(=O)(=O)N3CCCc4ccccc43)ccc21,5.9,-12.5,-2.9,-1.7,-10.5,i,-10.4,-5.2
CCCn1c(SCC(=O)Nc2c(C)cccc2C)nnc1C(C)C,-6.2,-19.6,-6.1,-0.2,0.3,i,nt,nt
COc1cc(OC)cc(C(=O)NNC(=O)CCc2ccccc2)c1,19.6,nt,-0.6,-2.1,-0.4,i,-9.2,5.4
COC(=O)c1ccc(Oc2nc(NC(C)(C)C)nc(N3CCOCC3)n2)cc1,3.4,nt,nt,nt,0.7,i,nt,-14.3
COc1ccc(OCCNC(=O)/C=C/c2ccc([N+](=O)[O-])cc2)cc1,2.0,-1.4,3.8,1.3,-3.0,i,9.3,-8.0
CC(C)C[C@H](NC(=O)OC(C)(C)C)c1nnc(SCc2cccc(F)c2)o1,-0.8,-0.9,-11.6,-12.2,-1.5,i,-79.0,-0.2
CC1Cc2ccccc2N1S(=O)(=O)c1cccc(C(=O)NNC(=O)c2ccccc2F)c1 (stereo not given),nt,-16.1,2.6,-12.7,nt,nt,0.6,nt
COC(=O)c1sc2nc(-c3ccccc3)c3c(c2c1N)CCCC3,-7.8,-20.1,-4.3,5.5,-11.2,i,12.8,25.8
O=C1[C@H]2[C@@H](c3ccc(F)cc3)N3C(=O)N(c4cccc(Br)c4)C(=O)[C@@]3(Cc3ccccc3)[C@H]2C(=O)N1C1CCCCC1,nt,4.4,-1.4,-14.4,nt,i,107.4*,9.9
CC(Oc1ccc2c(c1)oc(=O)c1ccccc12)C(=O)NCC1CCC(C(=O)O)CC1 (stereo not given),-6.5,-10.1,-3.7,-0.2,3.2,i,nt,-12.5
CCn1c(COc2ccc(=O)n(-c3ccccc3)n2)nnc1SCc1ccc(C)cc1,0.8,-2.8,-0.6,-0.2,0.4,i,18.7,-3.7
COc1ccc(N2CC(NC(=O)N(C)CCC#N)CC2=O)cc1 (stereo not given),-9.7,nt,-1.3,1.5,-9.3,i,-2.1,-18.4
Cc1ccc2oc(C(=O)NCCC3CCCCO3)c(C)c2c1 (stereo not given),-5.4,-21.6,-0.2,-0.9,-4.9,i,-113.9,-0.2
Cn1c(SCc2n[nH]c(=S)n2-c2ccccc2)nnc1-c1ccccc1,0.0,-11.2,0.2,8.7,-7.5,i,0.9,-9.6
CC(C)N1CCC(N2CCN(Cc3ccc(-c4ccc(Cl)cc4)o3)CC2CCO)CC1 (stereo not given),-0.5,-16.3,0.6,5.0,2.0,i,11.3,-4.7
CCOc1nc(C)cc(C)c1S(=O)(=O)c1ccc(Cl)cc1,-1.0,nt,-4.4,-3.9,-2.6,i,5.3,1.2
Nc1oc2ccccc2c(=O)c1C=O,1.5,nt,0.8,5.5,0.9,i,?,9.6
Oc1ccc(C[C@H]2CNCCN2CCc2cc(C(F)(F)F)cc(C(F)(F)F)c2)cc1,nt,-14.2,-0.9,-4.2,nt,i,13.8,52.6
# (continued)
SMILES,eIF4H FP inh,UUG fidelity,MT1-MMP act inh,MT1-MMP act inh RFP,PABP polyA inh,Rce1 inh,HIV Env fusion,CSC inhib
COc1ccc(N2CC(C(=O)Nc3cc(C)on3)CC2=O)cc1 (stereo not given),-1.6,-8.1,5.3,2.5,3.5,i,nt,-8.7
COC(=O)c1ccc(Cn2cnc3c(cnn3-c3ccc(Cl)cc3)c2=O)o1,4.7,-13.0,0.8,-0.8,2.4,nt,-39.5,12.7
COc1ccccc1C(O)(C(=O)NN(C)c1ccccc1)c1ccccc1OC,-7.3,nt,0.6,3.1,10.6,i,2.2,nt
CCN(Cc1nc2cc(Cl)ccc2c(=O)[nH]1)C(=O)c1nn(C)c(=O)c2ccccc12,nt,-15.2,4.0,0.1,nt,nt,4.4,nt
Oc1ccc(/C=N/N2CCN(c3ccccn3)CC2)cc1,-2.4,-12.2,-0.1,-4.2,7.7,i,6.8,-3.1
Cc1nn(-c2cc(N3CCOCC3)ccc2N)c(=O)c2ccccc12,-7.6,nt,0.6,0.1,-0.1,i,-71.7,-11.9
O=C(Nc1ccc(S(=O)(=O)NC2CCCCC2)cc1)c1ccc(Br)o1,-5.8,-3.0,-0.6,-10.7,-8.2,i,nt,8.8
O=C(C1CC1)N1CCc2cc(S(=O)(=O)NCCCN3CCCCC3)ccc21,-0.1,-4.8,4.1,3.5,1.2,i,10.5,-1.5
CN(C)C(=O)CSc1nnc2sc3ccccc3n12,-4.5,-5.5,-0.9,2.4,-4.1,i,nt,-1.3
CCOc1ccc(C2(C)CC(=O)N(C)C2=O)cc1 (stereo not given),-2.8,-10.9,-5.9,3.8,6.8,i,-19.6,-13.8
COc1ccc2[nH]cc(CCNC(=O)C3CCCO3)c2c1 (stereo not given),-3.8,nt,5.3,-2.7,-7.7,i,-5.7,4.7
O=C(NC(=S)Nc1ccc2[nH]c(=O)[nH]c2c1)c1ccccc1[N+](=O)[O-],-9.1,-6.7,-3.5,0.9,-1.5,i,-293.2,14.2
Cc1cc(C)c(C)c(OCCNCc2ccccc2)c1,-1.2,-19.4,2.8,2.7,5.8,nt,16.2,-2.2
COc1ccc(CNc2nc3ccccc3n2Cc2ccc(C)cc2)cc1OC,-2.0,-8.8,-1.4,-0.9,-6.0,i,7.0,-0.9
Cn1c(=O)c2c(ncn2CC(=O)O)n(C)c1=O,nt,-24.8,4.2,3.2,nt,nt,0.7,nt
COCCCNc1nc2c(-c3cccc(C(F)(F)F)c3)nnn2c2ccccc12,-5.6,-2.8,-4.2,2.5,1.6,i,12.4,-9.6

# An excerpt; count on the stated rates, not on these rows.
